# Assay outcomes deposited in PubChem BioAssay by Vanderbilt University.
# GIRK2 activ: GIRK2 channel activation | P48051 | HEK293-GIRK2 thallium flux, Thallos fluorescence | calls only for hits at 25 µM | 63,000 tested, 0.05% active;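 active = among the strongest 0.2% of first-round signals and kept after retests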;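 note: first round at about 10 µM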
# Target sequence (P48051 whole entry, looked up): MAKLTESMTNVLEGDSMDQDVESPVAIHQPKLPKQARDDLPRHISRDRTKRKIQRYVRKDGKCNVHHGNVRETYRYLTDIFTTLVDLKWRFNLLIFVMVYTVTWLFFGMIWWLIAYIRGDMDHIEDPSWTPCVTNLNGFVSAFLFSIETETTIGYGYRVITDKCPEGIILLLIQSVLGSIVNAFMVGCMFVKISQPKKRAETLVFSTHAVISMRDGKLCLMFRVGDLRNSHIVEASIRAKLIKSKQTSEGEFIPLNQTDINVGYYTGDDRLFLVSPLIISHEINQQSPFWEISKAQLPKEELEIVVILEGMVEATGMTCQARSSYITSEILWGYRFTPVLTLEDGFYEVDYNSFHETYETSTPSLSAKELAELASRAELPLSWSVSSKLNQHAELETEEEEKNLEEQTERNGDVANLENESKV
# Calls only; i = inactive.
SMILES,GIRK2 activ
Cc1cc(C)c(C)c(S(=O)(=O)Nc2ccc(C(=O)N3CCCC3)cc2)c1C,i
CS(=O)(=O)c1ccc(N2CCC(Cc3ccccc3)CC2)c([N+](=O)[O-])c1,i
CCN1CCN(S(=O)(=O)c2nn(Cc3ccccc3C)cc2C(=O)O)CC1,i
COCCn1c(=O)c2c(nc3n2CCCN3c2ccc(Oc3ccccc3)cc2)n(C)c1=O,i
COc1ccc(NC(=O)c2ccc3nn(CC(=O)Nc4ccc(C(C)=O)cc4)c(=O)n3c2)cc1,i
Cc1ccc(S(=O)(=O)NCCn2nc(C3CC3)n(-c3ccccc3)c2=O)cc1,i
CCCCOC(=O)c1ccc(Nc2c(C(=O)N3CCOCC3)cnc3nc(C)ccc23)cc1,i
CCOc1ccc(-c2noc(-c3nn(-c4ccc(F)cc4)c(=O)c4ccccc34)n2)cc1OC,i
O=C(NCc1cccs1)Nc1nnc(-c2ccc(F)cc2F)o1,i
CCN(CC)C(=O)c1cnc2ccc(F)cc2c1S(=O)(=O)c1ccc(OC)c(Cl)c1,i
CC(O)(CNC(=O)c1ccc2c(c1)OCO2)c1cccs1 (centres undefined),i
Cn1cc(C2=C(Sc3ccccc3)C(=O)NC2=O)c2ccccc21,i
CN1CCC(CNC(=O)c2ccccc2C(F)(F)F)CC1,i
CCSc1nnc(NC(=O)CCCn2cccc2)s1,i
COc1ccccc1C1CC(c2ccccc2)=NN1C(=O)c1ccco1 (centres undefined),i
O=C(/C=C/c1ccccc1Cl)N1CCC2(CC1)OCCCO2,i
O=c1c(-c2ccccc2)c(C(F)(F)F)oc2c3c(ccc12)OCN(CC1CCCO1)C3 (centres undefined),i
COc1ccc(SCCCC(=O)Nc2nnc(-c3cc(C)oc3C)o2)cc1,i
CC(=O)c1cccc(NC(=O)CCCn2cnc(-c3ccc(F)cc3)cc2=O)c1,i
CCCCCCn1c(N2CCN(CC(=O)OCc3ccccc3)CC2)nc2c1c(=O)[nH]c(=O)n2C,i
Cc1ccc(CNC(=O)C2CCN(c3ncccc3-c3nc(-c4ccccc4)no3)CC2)cc1,i
CN(Cc1ccccc1)C(=O)CSC1=NNC2C3CC(c4ccccc4)NN3C=CN12 (centres undefined),i
Cc1nc(SCc2nc(-c3ccccc3Cl)no2)[nH]c(=O)c1C,i
Cc1[nH]c(=O)[nH]c(=O)c1CCc1nnc(SCC(=O)c2ccc(F)cc2)o1,i
Cc1cc(C(=O)N2C3CCC2COC3)no1,i
Cc1nnc(C2CCN(CC(=O)N3CC(C)OC(C)C3)CC2)s1 (centres undefined),i
CCN(CC)C(=O)Cn1cnc2c(cnn2-c2ccccc2C)c1=O,i
CCCS(=O)(=O)N1CCCc2ccc(NS(=O)(=O)c3cc(C)ccc3OC)cc21,i
CSc1cccc(-n2nc(-c3nc(-c4cccnc4)no3)c3ccccc3c2=O)c1,i
O=C(CN1CCN(Cc2cn3ccccc3n2)CC1)c1cccs1,i
COc1ccccc1C(O)Cn1cc(C(=O)NCc2cc(F)cc(F)c2)nn1 (centres undefined),i
COc1ccc(C)cc1S(=O)(=O)Nc1cnc(N2CCN(c3ccccn3)CC2)nc1,i
Cc1cc(OCC(=O)Nc2ccc(S(=O)(=O)N3CCc4ccccc43)cc2)ccc1Cl,i
N#CC1=CN(c2cccc(Cl)c2)c2ccccc2S1(=O)=O,i
COc1cccc(NC(=O)CSc2ncccc2-c2nc(-c3cccs3)no2)c1,i
OCCc1nc2ccccc2n1Cc1c(Cl)cccc1Cl,i
COc1ccc(NC(=O)NNC(=O)c2cccn(Cc3cccc(Cl)c3)c2=O)cc1,i
COc1ccc(CNC(=O)NCCN2CCN(S(C)(=O)=O)CC2)cc1,i
CCc1[nH]nc(S(=O)(=O)Nc2ccc(Br)cc2)c1C(=O)OC,i
O=S(=O)(C1CC1)N1CCC(Oc2ncccc2Cl)CC1,i
CC(=O)N1N=C(c2cccs2)CC1c1cc2ccccc2[nH]c1=O (centres undefined),i
COc1ccc(O)c(C(=O)c2ccc(C(=O)O[C@@H]3CCCNC[C@H]3NC(=O)c3ccncc3)cc2)c1F,i
COc1ccc(C(CNS(=O)(=O)c2ccc(F)c(C)c2)N2CCN(C)CC2)cc1 (centres undefined),i
O=S(=O)(NCC1(c2ccc(F)cc2)CC1)c1ccccc1Cl,i
Cc1ccc(CNC(=O)c2cccc(-n3ccnc3SCC(=O)Nc3ccc(Cl)cc3F)c2)o1,i
CCc1ccc(C2NC(=O)N(CC(=O)Nc3ccc(F)c(Cl)c3)C3=C2C(=O)OC3)cc1 (centres undefined),i
C=CCNc1nc2c(c(=O)[nH]c(=O)n2C)n1CC(O)COc1ccccc1C (centres undefined),i
COc1ccc(CCNC(=O)NCCC(O)c2ccoc2)cc1 (centres undefined),i
COc1cccc(NC(=O)CSc2ncc(S(=O)(=O)c3ccc(C)cc3C)c(=O)[nH]2)c1,i
Cn1nc(C(=O)N2CCN(CC(O)C3CC3)CC2)ccc1=O (centres undefined),i
Cc1cc(OCC(=O)Nc2cc(N3CCN(c4ccccc4)CC3)ncn2)ccc1Cl,i
O=C(Nc1cc(F)ccc1F)C1CCN(Cc2nc(-c3ccccc3)no2)CC1,i
COc1ccc(CNC(=O)C2CCN(c3nc4c(-c5ccccc5F)csc4c(=O)[nH]3)CC2)cc1,i
COc1ccc(/C=C/C(=O)NCc2sc(-c3ccccc3)nc2C)cc1,i
O=C(CCSc1ccccc1)N1CCN(c2ccc3nnc(C4CC4)n3n2)CC1,i
COc1cc(C2CO[C@@H](c3cc(OC)c(OC)c(OC)c3)O2)cc(OC)c1OC (some centres undefined),i
COc1ccccc1CNc1nc2ccccc2nc1NS(=O)(=O)c1ccccc1,i
O=c1c2oc3ccccc3c2nc(SCc2nc(-c3ccccc3)no2)n1C1CCCC1,i
CCOC(=O)CCC(=O)N1CCN(C(=O)C2CC2c2ccc3c(c2)OCO3)CC1 (centres undefined),i
CCOC(=O)CCn1c(=O)c2c(nc3n(-c4ccc(C)cc4)c(C)cn23)n(C)c1=O,i

# (listing goes on)
SMILES,GIRK2 activ
COc1ccc(CC(=O)NCCc2ccoc2)cc1OC,i
O=C(NCCOc1cccc2cccnc12)c1ccc(=O)[nH]c1,i
O=C(O)/C=C\C(=O)Nc1ccc(Cl)cc1C(=O)c1ccccc1,i
CCc1ccc(NC(=O)c2cn(Cc3ccc(NC(=O)Cc4cccc(OC)c4)cc3)cn2)cc1,i
COc1ccc(S(=O)(=O)Oc2ccc3c(c2)O/C(=C\c2ccc(OC)c(OC)c2OC)C3=O)cc1,i
O=S(=O)(c1cccs1)N(CCc1cccs1)Cc1ccoc1,i
COc1ccccc1OCC(O)CNC(C)C (centres undefined),i
COc1ccccc1-n1c(-c2ccccc2)cn2c3c(=O)n(CC(C)=O)c(=O)n(C)c3nc12,i
COc1ccc(NC(=O)Nc2nc(CCC(=O)N3CCN(C(C)=O)CC3)cs2)cc1,i
O=C(NCCNc1cc(Nc2ccccn2)ncn1)C1CCCCC1,i
COc1cc(C)c(Cl)cc1S(=O)(=O)NC1CCCCCC1,i
COc1ccc(OC)c(NC(=O)c2cccc(S(=O)(=O)N3CCOCC3)c2)c1,i
COc1ccc(-c2cn3c(C(=O)N4CCN(c5ccccc5OC)CC4)csc3n2)cc1,i
O=C(Cc1ccc(NC(=O)Nc2ccc(Cl)c(Cl)c2)cc1)NC1CC1,i
OC(COc1ccc(Br)cc1Br)CN1CCc2ccccc2C1 (centres undefined),i
COc1cccc2sc(N(CC3CCCO3)C(=O)c3ccc(Br)o3)nc12 (centres undefined),i
CC(Oc1ccccc1)C(=O)N1CCN(c2nnc(SCC(=O)Nc3ccccc3)s2)CC1 (centres undefined),i
CC(=O)NS(=O)(=O)c1ccc(NC(=O)c2cnc3c(c(C)nn3-c3ccccc3)c2Cl)cc1,i
COc1cccc(-n2cc(-c3nc(-c4ccc(OC)c(OC)c4)no3)c3ccccc3c2=O)c1,i
CCN1CCCc2cc(CCNC(=O)C(=O)Nc3cc(Cl)ccc3C)ccc21,i
COc1ccc(C(=O)N(CCN2CCOCC2)c2nc3ccccc3s2)cc1,i
O=C(NCC1COC2(CCCCC2)O1)C1c2ccccc2Oc2ccccc21 (centres undefined),i
CC(C)Sc1ccc(CC(=O)NCC#CCOc2ccccc2C(N)=O)cc1,i
Cc1ccc(=O)n(CC(=O)N2CCN(c3ccc(F)c(Cl)c3)CC2)n1,i
COC(=O)Cn1cnc2c1c(=O)n(C)c(=O)n2C,i
NS(=O)(=O)c1ccc(NC(=O)CSc2nnc3ccc4ccccc4n23)cc1,i
Cc1cn2c3c(=O)n(CCc4ccccc4)c(=O)n(C)c3nc2n1C(C)C,i
O=c1c2ccccc2n(Cc2nc(-c3ccc(F)c(Br)c3)no2)c(=O)n1Cc1ccco1,i
CCOC(=O)c1ccc(-n2c(C)cn3c4c(=O)n(CC(N)=O)c(=O)n(C)c4nc23)cc1,i
CCOCCn1c(=O)c2c(nc3n(-c4ccc(C)cc4C)c(C)cn23)n(C)c1=O,i
C=CCSc1cc(C)c(C#N)c2nc3ccccc3n12,i
CCOc1ccc(C(=O)NCCCn2ncccc2=O)cc1,i
c1ccc(Cn2nnc3c(Sc4ncco4)ncnc32)cc1,i
CCCn1cc(S(=O)(=O)c2ccc(OC)cc2)c(=O)c2cc(F)c(N3CCC(C)CC3)cc21,i
CN1C(=O)Cc2cc(NC(=O)Cc3cn(C)c4ccccc34)ccc21,i
CC(Oc1ccccc1)C(=O)NCc1cc(-c2ccncc2)n(C2CCCC2)n1 (centres undefined),i
Cn1cnc(S(=O)(=O)NCC2CCN(C(=O)c3ccccc3F)CC2)c1,i
Cn1c(CN2CCN(C(=O)c3ccc4nsnc4c3)CC2)nc2ccccc21,i
COc1ccc(NC(=O)c2ccc(NC(=O)c3cn(C)nc3OC)cc2)cc1Cl,i
COCCNC(=O)C(=O)NCCC(O)c1cc(C)oc1C (centres undefined),i

# Another view of part of the listing above.
SMILES	GIRK2 activ
Cc1ccc(=O)n(CC(=O)N2CCN(c3ccc(F)c(Cl)c3)CC2)n1	i
COC(=O)Cn1cnc2c1c(=O)n(C)c(=O)n2C	i
NS(=O)(=O)c1ccc(NC(=O)CSc2nnc3ccc4ccccc4n23)cc1	i
Cc1cn2c3c(=O)n(CCc4ccccc4)c(=O)n(C)c3nc2n1C(C)C	i
O=c1c2ccccc2n(Cc2nc(-c3ccc(F)c(Br)c3)no2)c(=O)n1Cc1ccco1	i
CCOC(=O)c1ccc(-n2c(C)cn3c4c(=O)n(CC(N)=O)c(=O)n(C)c4nc23)cc1	i
CCOCCn1c(=O)c2c(nc3n(-c4ccc(C)cc4C)c(C)cn23)n(C)c1=O	i
C=CCSc1cc(C)c(C#N)c2nc3ccccc3n12	i
CCOc1ccc(C(=O)NCCCn2ncccc2=O)cc1	i
c1ccc(Cn2nnc3c(Sc4ncco4)ncnc32)cc1	i
CCCn1cc(S(=O)(=O)c2ccc(OC)cc2)c(=O)c2cc(F)c(N3CCC(C)CC3)cc21	i
CN1C(=O)Cc2cc(NC(=O)Cc3cn(C)c4ccccc34)ccc21	i
CC(Oc1ccccc1)C(=O)NCc1cc(-c2ccncc2)n(C2CCCC2)n1 (centres undefined)	i
Cn1cnc(S(=O)(=O)NCC2CCN(C(=O)c3ccccc3F)CC2)c1	i
Cn1c(CN2CCN(C(=O)c3ccc4nsnc4c3)CC2)nc2ccccc21	i
COc1ccc(NC(=O)c2ccc(NC(=O)c3cn(C)nc3OC)cc2)cc1Cl	i
COCCNC(=O)C(=O)NCCC(O)c1cc(C)oc1C (centres undefined)	i

# The results go on:
SMILES,GIRK2 activ
O=C(Nc1nc2c(s1)COCC2)C1c2ccccc2Oc2ccccc21,i
CCOc1cc(C)ccc1S(=O)(=O)N1CC(C)CC(C)C1 (centres undefined),i
COc1ccc(C2CC3C4NN=C(SCC(=O)Nc5ccccc5F)N4C=CN3N2)cc1 (centres undefined),i
CC(=O)O[C@H]1CC[C@@]2(C)C(CC[C@@H](C)[C@]23Cc2c(O)cc4c(c2O3)CN([C@@H](CCC(=O)O)C(=O)O)C4=O)C1(C)C (some centres undefined),i
Cc1ccc(S(=O)(=O)Nc2cccc(C(=O)N3CCOCC3)c2)cc1,i
c1cnn2ncc(-c3ccnc(NCCCN4CCOCC4)n3)c2c1,i
O=C(O)c1cc(N(Cc2ccccc2O)Cc2cc(O)ccc2O)ccc1O,i
O=C(CCSc1ccccc1)N1CC(c2nc(-c3cccs3)no2)C1,i
COc1cc(N2CCN(S(=O)(=O)c3cc(C)c(C)cc3C)CC2)nc(OC)n1,i
Cc1nc(-c2nnc(NC(=O)/C=C/c3cccs3)o2)cs1,i
CCc1cccc(NC(=O)CSC2=NNC3C4CC(c5ccccc5)NN4C=CN23)c1 (centres undefined),i
Cc1cc2ncn(CC3CCN(C(=O)Cn4ccc(=O)[nH]c4=O)CC3)c2cc1C,i
O=C(COc1ccc(Br)cc1)Nc1nc(-c2ccncc2)cs1,i
CC(C)c1ccc(-n2nnc(C(=O)NC3CCCC3)c2N)cc1,i
Cc1ccc(Oc2ccc(NS(=O)(=O)c3cc(F)ccc3C)cc2)nn1,i
COc1cccc(S(=O)(=O)NCc2ccc(C(=O)N3CCN(C)CC3)cc2)c1,i
Cc1ccc(-n2ncc3c(=O)n(CC(=O)N4CCCCCC4)cnc32)cc1,i
CNC(=O)Cc1ccc(-n2c(=O)c3ccccc3n(Cc3cc(C=O)ccc3OC)c2=O)cc1,i
Cc1ccc(-n2ncc3c(SCC(=O)N4CCC(C)CC4)ncnc32)c(C)c1,i
O=S(=O)(C1CCCCC1)N1CC(c2nc(-c3cnccn3)no2)C1,i
O=C(NCC1CCN(C(=O)Nc2ccc(F)cc2)CC1)C(=O)NCC1CCCO1 (centres undefined),i
O=C1CC(c2noc(-c3ccccn3)n2)CN1c1ccc2c(c1)OCO2 (centres undefined),i
O=C(CCn1cnc2c([nH]c3ccc(Br)cc32)c1=O)NCc1ccccc1,i
Cc1ccc(S(=O)(=O)N(C)c2cc(S(=O)(=O)N(C)c3cccc(C)c3)c(C)cc2C)cc1,i
Cc1ccc(=O)n(CC(=O)Nc2ccncc2)n1,i
COc1cccc(Oc2c(C)oc3cc(O)ccc3c2=O)c1,i

# The list is partial; rates above refer to the full screens.
